Rango complex inh – Rango-importin beta binding inhibition; Rango CFP/YFP FRET sensor + importin beta, 45 min; actives 0.031% (n = 340,000); Q14974; AID 540263; Potency, µM (titrated, usually from 92.2 µM), inactives show at the top dose inhibition of complex formation; active = rising FRET ratio curve, often small or poorly fitted; inconclusive = mostly compound fluorescence or quenching in the first reads; inactive = flat curves in all reads;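 also: potency is read from the fitted curve at half-maximal effect; 0% = DMSO wells and 100% = buffer wells lacking importin beta; nearly all actives have a fitted effect of over 15% in size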
Target sequence (Q14974 whole entry, looked up): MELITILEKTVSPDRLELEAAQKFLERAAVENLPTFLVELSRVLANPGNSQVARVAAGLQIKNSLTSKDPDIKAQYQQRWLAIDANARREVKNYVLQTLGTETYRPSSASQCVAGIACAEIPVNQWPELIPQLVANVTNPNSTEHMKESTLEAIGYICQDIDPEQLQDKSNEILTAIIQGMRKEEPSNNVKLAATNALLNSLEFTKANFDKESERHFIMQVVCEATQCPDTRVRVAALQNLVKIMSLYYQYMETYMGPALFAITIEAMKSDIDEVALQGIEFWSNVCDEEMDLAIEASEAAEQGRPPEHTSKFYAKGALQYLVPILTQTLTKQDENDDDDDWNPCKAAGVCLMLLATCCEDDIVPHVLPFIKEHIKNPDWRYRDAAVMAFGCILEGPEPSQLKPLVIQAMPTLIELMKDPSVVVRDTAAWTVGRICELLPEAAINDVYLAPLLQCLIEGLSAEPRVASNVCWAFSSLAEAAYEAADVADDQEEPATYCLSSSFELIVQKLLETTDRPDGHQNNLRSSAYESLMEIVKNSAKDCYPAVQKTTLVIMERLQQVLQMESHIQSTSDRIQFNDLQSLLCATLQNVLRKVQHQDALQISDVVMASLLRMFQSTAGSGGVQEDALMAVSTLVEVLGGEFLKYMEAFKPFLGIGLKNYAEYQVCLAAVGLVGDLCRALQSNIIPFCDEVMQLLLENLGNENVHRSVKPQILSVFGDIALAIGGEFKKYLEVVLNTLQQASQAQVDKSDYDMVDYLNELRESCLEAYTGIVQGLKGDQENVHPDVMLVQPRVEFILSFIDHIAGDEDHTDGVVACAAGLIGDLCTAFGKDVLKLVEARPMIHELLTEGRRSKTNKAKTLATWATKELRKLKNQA
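Inhibition scored from the CFP 486 nm/YFP 530 nm FRET ratio 45 min after adding 0.125 microM importin beta to 50 nM Rango biosensor preincubated 5 min with compound (room temperature, PBS with DTT, Tween-20, BSA). No-importin wells as positive control.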
Rango dissoc inh – inhibition of RanGTP-driven Rango-importin beta dissociation. AID 540253. O95149+P62826. actives 0.071% (n = 340,000). Potency, µM (top dose mostly 46.1 µM), for inactives: at the top dose activity change, negative = inhibition. Biochemical FRET Rango-importin beta, RanGTP-induced dissociation; active means falling FRET ratio curve, often poorly fitted, with flat reads before Ran was added; inconclusive means other falling curves, or compound fluorescence or quenching; inactive means flat or rising ratio curve;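 also: potency is read from the fitted curve at half-maximal effect; % of control where 0% means no effect; nearly all actives have a fitted effect of over 45% in size; -100% = wells without RanGTP and RCC1; the record marks most hits as doubtful in a second field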
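Rango/importin beta premix (0.1/0.25 uM final), PBS + 1 mM DTT + 0.02% Tween-20 + 0.1% BSA; cpd 5 min RT; FRET pre-read; + RanGTP-RCC1 (0.6 uM Ran, 2 mM GTP, 0.2 uM RCC1); 45 min RT; FRET post-read, ex 430, em 486/530 nm.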
GLA inh pH 4.5 – inhibitors of human alpha-galactosidase A at pH 4.5; AID 1467; 230,000 tested, under 10 active; activity change, negative = inhibition, % at 105 µM; purified enzyme, 4-MU-alpha-Gal fluorescence, pH 4.5; inconclusive = small, poorly fitted or top-dose-only inhibition, or a rising curve; inactive = flat fitted curve, though single readings scatter; no compound was filed as active;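 also: 0% = full activity with enzyme and -100% = basal without enzyme; dose as in the result columns while the protocol names 77 µM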
miR-21 FLuc – miR-21 reporter, rising signal. Potency, µM (titrated, usually from 38.3 µM), for inactives: at the highest dose reporter change, positive = more light. 340,000 tested, under 10 active. HeLa miR-21 FLuc reporter, luciferase, 48 h; active = well fitted rising curve with a large enough effect; inconclusive = small, poorly fitted or top-dose-only effect; inactive = no such curve, though single readings can be large or run the other way;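 also: % of control where 0% means no effect; miR-21 action dims this reporter so a rising signal means less miR-21 action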
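Using DMEM plus 10% FBS, HeLa miR-21-FLuc cells are incubated with test compounds (final up to about 40uM) for 48 hours; firefly luciferase signal is then imaged following reagent-mediated lysis.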
Numbers without * were called inactive; ? = inconclusive; . = no result given; & = joins results of further samples; [ ] = another dose, or the depositor's remark. An excerpt. The share of hits here may be higher or lower than overall.

SMILES	Rango complex inh	Rango dissoc inh	GLA inh pH 4.5	miR-21 FLuc
CN1CCN(c2ccc(-c3cccc(NC(=O)COc4ccc(Cl)cc4Cl)c3)nn2)CC1	12%	-16%	.	.
CN(CC(=O)Nc1ccccc1Br)C(=O)c1cc2c(s1)CCCCC2	0.9%	7%	.	.
CN(C)CCCN(Cc1cc2cc3c(cc2[nH]c1=O)OCO3)C(=S)Nc1ccccc1	?	-8%	2	-1%
CC(C)OC(=O)CSc1nnc(CNc2ccc(Cl)cc2)n1Cc1ccccc1	-2.1%	3%	-9	-3%
Cc1cc(NC(=O)COC(=O)C2CCN(C(=O)c3ccc(Cl)cc3)CC2)no1	0.2%	1%	-20	0%
Cc1cc(NC(=O)c2ccc(S(=O)(=O)Nc3ccccc3)cc2)no1	-3.3%	17%	2	0%
O=C(O)CCCNS(=O)(=O)c1ccc(NCc2ccccc2)c(C(=O)O)c1	-0.4%	3%	6	0%
CCOC(=O)NN1C(=O)c2ccccc2NC1c1ccccc1 (stereo not drawn)	-1.7%	-12%	2	-9%
CC(=O)N1CCN(CC(c2ccccc2)c2ccccc2)CC1	0.2%	3%	.	-2%
COCCNS(=O)(=O)c1cc(OC)c(C)cc1C	0.0%	0%	7	0%
Cc1ccc(NC(=O)CN(C)C(=S)NC2CC2)cc1	-0.1%	6%	9	0%
Cc1cnc(C(=O)OCC(=O)Nc2ccc(Br)cc2F)cn1	-2.0%	1%	.	.
CCOC(=O)C1(CC2CCCCO2)CCN(C(=O)Nc2ccc3c(c2)OCO3)CC1 (stereo not drawn)	1.7%	?	-12	-16%
COc1cccc(CN(C)S(=O)(=O)c2c(C)noc2C)c1OC	1.7%	20%	.	.
NC(=O)C1CCN(C(=O)c2ccc(OCC(=O)Nc3cccc(C(F)(F)F)c3)cc2)CC1	-1.5%	-2%	.	.
Cc1c(C(=O)OCC(=O)N2CCCC(C)C2)oc2ccccc12 (stereo not drawn)	?	?	.	.
Cc1ccc(NC(=O)COc2ccc(Br)cc2CO)cc1	-2.5%	-8%	7	-27%
Cn1cccc1CC(=O)NNC(=S)Nc1ccc(Cl)cc1Cl	-1.8%	-7%	2	-12%
CC(C)(C)NC(=O)COC(=O)c1ccccc1NC(=O)c1ccco1	-0.6%	18%	-4	-3%
CCCCn1c(N)c(N(CC(C)C)C(=O)CCCn2c(=O)oc3ccccc32)c(=O)[nH]c1=O	1.9%	4%	.	.
O=C(Nc1c2c(nn1-c1cccc(Cl)c1)CS(=O)(=O)C2)c1ccco1	0.3%	-15%	.	1%
CCCC(C)NC(=S)Nc1cc(C)cc(C)c1 (stereo not drawn)	-0.2%	14%	-10	10%
COc1ccc(N(CC(=O)N2CCN(Cc3ccccc3)CC2)S(C)(=O)=O)c(OC)c1	0.3%	-6%	.	1%
CSCC[C@H](NC(=O)c1cc([N+](=O)[O-])ccc1Cl)c1nc2ccccc2[nH]1	-3.8%	-9%	-3	10%
COC1OC2COC(c3ccccc3)OC2C(OC(=O)c2ccccc2)C1OC(=O)c1ccccc1 (stereo not drawn)	1.9%	2%	.	.
The listing continues:
SMILES	Rango complex inh	Rango dissoc inh	GLA inh pH 4.5	miR-21 FLuc
N#Cc1cnn2cc(CCN3CCOCC3)c(-c3ccc(F)cc3)nc12	-2.6%	41%	-6	0%
O=C(N/N=C/c1cc([N+](=O)[O-])ccc1O)C(O)(c1ccccc1)c1ccccc1	-1.4%	7%	.	18%
N#CC1CCCc2c1[nH]c1ccc([N+](=O)[O-])cc21 (stereo not drawn)	3.5%	-4%	-1	0%
O=C1Nc2ccc(Br)cc2C1Cc1ccccc1F (stereo not drawn)	0.0%	14%	.	-2%
Cc1c(NC(=O)Nc2ccc(C#N)cc2)c(=O)n(-c2ccccc2)n1C	?	-7%	.	-2%&2%
c1ccc(C2c3[nH]c4ccccc4c3CCN2Cc2cccn2-c2ccccn2)nc1 (stereo not drawn)	?	0%	-13	6%
Cc1cccc(C(=O)Nc2ccc(N3CCN(c4ccc(C(F)(F)F)cn4)CC3)nc2)c1	-1.4%	-6%	-1	0%
CC1CC[C@@]2(OC1)O[C@H]1CC3[C@@H]4C[C@@H](O)[C@@]5(O)C[C@@H](O)[C@H](O)C[C@]5(C)[C@H]4CC[C@]3(C)[C@H]1[C@@H]2C (stereo partly drawn)	-0.7%	-10%	.	2%
CC(C)c1[nH]nc2c1C(c1ccco1)C(C#N)=C(N)O2 (stereo not drawn)	3.3%	-16%	8	7%
O=C(c1ccc(Cn2c(=S)[nH]c3ccc(N4CCOCC4)cc3c2=O)cc1)N1CCN(c2ccc(F)cc2)CC1	?	?	-12	-21%
CCCCn1c(N)c(N(CC)C(=O)c2ccc3c(c2)S(=O)(=O)c2ccccc2C3=O)c(=O)[nH]c1=O	0.0%	-16%	3	-1%
O=C(CSc1ncnc2c1cnn2-c1cccc(Cl)c1)NCC1CCCO1 (stereo not drawn)	0.6%	14%	.	4%
COc1cccc(Cn2cc(N)cn2)c1	0.5%	19%	4	0%
c1ccc(-c2ccccc2OCc2nnc3n2CCC3)cc1	-1.2%	7%	5	0%
OCC1(Cc2ccccc2)CCCN(Cc2c[nH]c3ccccc23)C1 (stereo not drawn)	-2.8%	0%	-5	0%
CCCCN(C(=O)c1cc(CC)c(C)s1)c1c(N)n(CCC)c(=O)[nH]c1=O	-0.8%	16%	.	.
O=C(O)C(Cc1cc2ccccc2[nH]1)N1C(=O)C2CC=C(Cl)CC2C1=O (stereo not drawn)	5.5%	-9%	-2	-3%
Cn1c(-c2ccsc2)c(-c2cccs2)c2cc(-c3ccc4[nH]ccc4c3)ccc21	1.5%	-8%	.	.
O=C(Nc1ccc2nc(-c3cccs3)[nH]c2c1)c1cccs1	0.4%	2%	-6	-10%
CC1=[N+]([O-])C(C)(C)CC(C)(C)c2ccccc21	-0.6%	6%	8	0%
CC(Oc1ccc(Cl)cc1)C(=O)NCC1CCCO1 (stereo not drawn)	5.2%	19%	.	-2%
CCOC(=O)c1ccccc1NC(=O)CSc1nnc(Cc2cccn2C)n1-c1ccc(F)cc1	0.8%	5%	-4	-10%
Cc1cc(C)c(S(=O)(=O)N2CCOC2CNC(=O)C(=O)NCCc2ccc(S(N)(=O)=O)cc2)c(C)c1 (stereo not drawn)	-0.8%	4%	.	8%
O=S(=O)(c1ccc(Br)cc1)N1CCCN(Cc2cccc(F)c2)CC1	-0.6%	-2%	-1	-17%
CN(CC(=O)Nc1cccc(F)c1)C(=O)c1ccccc1-n1cnnn1	-0.1%	10%	.	.
(listing goes on)
SMILES	Rango complex inh	Rango dissoc inh	GLA inh pH 4.5	miR-21 FLuc
CC(C)(C)OC(=O)NC1CONC1=O (stereo not drawn)	3.2%	1%	4	-3%
COc1ccc2c(c1OC)C(=O)N1C2SC[C@H]1C(=O)NC1CCCCC1 (stereo partly drawn)	-0.4%	-4%	.	-2%
CCOCCCNC(=O)COc1ccc(OC)cc1	-1.0%	0%	4	1%
CC1CN(S(=O)(=O)c2cccc(C(=O)OCC(=O)N3CCCCCC3)c2)CC(C)O1 (stereo not drawn)	2.4%	0%	.	.
COC(=O)c1ccc(Nc2cc(C)nc3ccccc23)cc1	0.8%	-6%	-15	14%
CCOC(=O)c1c2c(c(=S)n(-c3ccccc3)c1N)CCC2	1.8%	-10%	-5	-25%
CC(NC(=O)C(c1ccccc1)c1ccccc1)C(=O)N1CCCCC1 (stereo not drawn)	-2.4%	1%	0	4%
CC1Cc2nc(SCC(=O)Nc3ccc(F)cc3)n(C)c(=O)c2S1 (stereo not drawn)	?	8%	-6	0%
Fc1ccc(-n2nnc(-c3nccs3)n2)cc1	-0.4%	11%	7	-19%
CC(C)N1C(=O)CSC1c1ccc(Br)cc1 (stereo not drawn)	-3.5%	3%	-2	-14%
CC(C)(C)C(CN1CCCC1)OC(=O)c1ccccc1 (stereo not drawn)	-0.3%	32%	.	0%
Cc1ccc(N(CCC#N)C(=O)CCl)cc1C	3.9%	-9%	8	?
CCOc1ccc(S(=O)(=O)N(CC)CC)cc1N	2.3%	8%	2	0%
CCCNC(=O)c1ccc(N2CCC3(CC2)CC(c2ccccc2)=NO3)c(NC(=O)c2ccccc2)c1	-0.1%	-7%	.	7%
CC(=O)Nc1cccc(-c2csc(Nc3cccc(C)n3)n2)c1	5.6%	-15%	-6	-21%
Cc1cc(NC(=O)C(Cl)Cl)cc2c1OCO2	?	32%	.	.
O=C(COC(=O)C1(c2ccccc2F)CCCC1)NCc1ccc2c(c1)OCO2	0.4%	-8%	3	-3%
O=C(N/N=C/c1ccc(-c2ccccc2Cl)o1)c1ccccc1	3.1%	10%	1	-31%
CCCCn1c(SCC(=O)Nc2cc(C(F)(F)F)ccc2Cl)nnc1C(CC)N(C)C (stereo not drawn)	-3.7%	-12%	-4	-2%
Cc1cccc(-c2nc(CSCC(=O)NCCCN3CCOCC3)c(C)o2)c1	7.6%	3%	5	2%
Cc1c(C(=O)Nc2nc3ccccc3[nH]2)oc2ccccc12	-4.1%	1%	-2	-18%
c1ccc(Oc2cccc(OCCn3cncn3)c2)cc1	2.9%	0%	-1	-8%
O=C(O)CCCn1cc(NC(=O)c2cccc(F)c2)cn1	-2.4%	13%	-3[21.1 µM]	0%
Cc1sc(N2C(=O)C3C4C=CC(C4)C3C2=O)c(C#N)c1C (stereo not drawn)	-0.7%	21%	-5	-8%
Nn1c(Cc2cccc3ccccc23)nnc1SCC(=O)NCC1CCCO1 (stereo not drawn)	1.1%	-10%	.	.
The listing continues.
SMILES	Rango complex inh	Rango dissoc inh	GLA inh pH 4.5	miR-21 FLuc
Cc1ccccc1C(=O)N1CCC(C(=O)N(C)CC(=O)Nc2cccc(F)c2)CC1	-0.1%	1%	.	1%
CCc1cccc(NS(=O)(=O)c2ccc3c(c2)N(C)CCO3)c1	-3.3%	21%	.	20%
Cc1nc2nc[nH]n2c(=O)c1CCOC(=O)c1c(F)cccc1F	-1.9%	1%	3	6%
COc1ccccc1NC(=O)CSc1nnc(Cc2cccs2)n1C	-1.9%	-12%	.	.
Cc1c(C(=O)OCC(=O)N(C)Cc2ccc(Cl)cc2)oc2ccccc12	6.2%	-22%	.	.
OCc1ccccc1SSc1ccccc1CO	1.6%	12%	.	.
CCOCCCNS(=O)(=O)c1ccc(NC(=O)c2ccc([N+](=O)[O-])cc2Cl)cc1	0.1%	0%	8	6%
O=C(NCCN1C(=O)S/C(=C\c2cccnc2)C1=O)C1=NN(c2ccccc2)C(=O)CC1	3.1%	3%	6	-2%
O=C(NNC(=O)c1ccc([N+](=O)[O-])cc1C(=O)O)c1ccncc1	1.9%	1%	.	-5%
O=C(OCC1OC(n2ccc(=O)[nH]c2=O)C(O)C1OC(=O)c1ccccc1)c1ccccc1 (stereo not drawn)	-0.6%	3%	-26	-2%
COc1ccc(CCNC(=O)C2CCN(S(=O)(=O)c3ccc(C)cc3)CC2)cc1	0.7%	0%	.	5%
O=C(C[n+]1cccc2ccccc21)c1ccc(NC(=O)c2ccccc2)cc1	?	-27%	-5	2%
Cc1ccnc2nc(C(=O)NCCc3ccc(F)cc3)nn12	?	-18%	-9	-7%
Cc1cc(C)cc(OCC(=O)Nc2ccccc2C(=O)NCc2ccco2)c1	0.4%	2%	-3	-5%
CSc1ccc(CCNC(=O)CCc2nnc3ccc(N4CCOCC4)nn23)cc1	-2.2%	-3%	.	4%
COc1ccc(C(=O)OCC(=O)NCCCc2ccccc2)cc1[N+](=O)[O-]	-3.5%	-1%	-2	-3%

Part of the list above, with each value named:
CCc1cccc(NS(=O)(=O)c2ccc3c(c2)N(C)CCO3)c1
- Rango complex inh = -3.3%
- Rango dissoc inh = 21%
- GLA inh pH 4.5 = .
- miR-21 FLuc = 20%
CCOc1ccc(S(=O)(=O)N(CC)CC)cc1N
- Rango complex inh = 2.3%
- Rango dissoc inh = 8%
- GLA inh pH 4.5 = 2
- miR-21 FLuc = 0%
CCCCn1c(N)c(N(CC(C)C)C(=O)CCCn2c(=O)oc3ccccc32)c(=O)[nH]c1=O
- Rango complex inh = 1.9%
- Rango dissoc inh = 4%
- GLA inh pH 4.5 = .
- miR-21 FLuc = .
Cc1c(C(=O)OCC(=O)N(C)Cc2ccc(Cl)cc2)oc2ccccc12
- Rango complex inh = 6.2%
- Rango dissoc inh = -22%
- GLA inh pH 4.5 = .
- miR-21 FLuc = .

Screens as filed in PubChem.
